# GIRK2 activ: activators of human GIRK2 potassium channels; HEK293-GIRK2 thallium flux, Thallos fluorescence; calls only for hits at 25 µM; actives 0.05% (n = 63,000);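 active means among the strongest 0.2% of first-round signals and kept after retests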;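 further: first round at about 10 µM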
# Target sequence (P48051 whole entry, looked up): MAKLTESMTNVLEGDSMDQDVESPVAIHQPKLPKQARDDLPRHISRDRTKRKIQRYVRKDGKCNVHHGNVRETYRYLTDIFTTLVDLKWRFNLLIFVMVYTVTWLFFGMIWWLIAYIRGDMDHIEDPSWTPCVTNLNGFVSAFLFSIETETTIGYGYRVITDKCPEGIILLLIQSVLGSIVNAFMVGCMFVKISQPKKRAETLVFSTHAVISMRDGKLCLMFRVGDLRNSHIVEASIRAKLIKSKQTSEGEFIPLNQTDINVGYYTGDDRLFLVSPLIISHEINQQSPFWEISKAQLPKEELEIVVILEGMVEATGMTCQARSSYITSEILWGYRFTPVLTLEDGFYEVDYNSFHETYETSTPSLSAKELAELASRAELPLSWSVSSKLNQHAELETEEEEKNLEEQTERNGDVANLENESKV
# Calls only; i = inactive.
GIRK2 activ | canonical_smiles
i | O=C(c1ccc(Br)o1)N1CCOCC1CO (centres undefined)
i | CCN(CC)CCNc1nc2c(c(=O)n(Cc3ccccc3Cl)c(=O)n2C)n1C
i | CC(=CCCCCCCCC(C)C)C(=O)O
i | Cc1cc(F)ccc1NC(=O)Cn1nc2c(SCc3ccc(Cl)cc3)nccn2c1=O
i | COc1ccccc1-c1coc2c3c(ccc2c1=O)OCN(CCc1cccs1)C3
i | CC(C)CCN1C(=O)CCc2cc(NC(=O)NC3CCCCC3)ccc21
i | N#CCSc1ncccc1-c1nc2ccccc2[nH]1
i | Cc1ccc(NC(=O)Cn2nc3c4cccc(C)c4ncn3c2=O)c(Br)c1
i | COc1cc(OC)c(C2c3c(oc4ccccc4c3=O)C(=O)N2C)cc1OC (centres undefined)
i | COc1ccc(C)cc1NC(=O)CCc1csc(NC(=O)c2ccc[nH]c2=O)n1
i | CCOC(=O)CCC(=O)N1CCN(CC(O)c2cccs2)CC1 (centres undefined)
i | Cc1cc(=O)n(CCNC(=O)c2ccc(Br)o2)cn1

GIRK2 activ | canonical_smiles
i | COc1ccccc1OCCCN1C(=O)C2(SC(NC(C)=O)=NN2C(C)=O)c2cccc(C)c21 (centres undefined)
i | COc1ccc(CC(=O)Nc2ccc(Cn3cnc(C(=O)Nc4cccc(OC)c4)c3)cc2)cc1
i | CCN(CC)C(=O)c1cnc2nc(C)ccc2c1Nc1cc(OC)cc(OC)c1
i | Cc1nc(-c2ccc(N3CCN(C(=O)c4ccc(=O)[nH]c4)CC3)nc2)no1
i | O=C(Cc1cccc2ccccc12)NCC#CCN1CCCC1
i | COc1ccc2c(=O)c3c(=O)n(Cc4ccco4)c(C(C)C)nc3oc2c1
i | CN(C)C(CNC(=O)NCc1cccc2ccccc12)c1ccc2c(c1)CCO2 (centres undefined)
i | Cc1cn2c3c(=O)n(CCCc4ccccc4)c(=O)n(C)c3nc2n1CCOCCO
i | CC(C)Sc1ccc(CC(=O)N2CCC(CSc3nccn3C)CC2)cc1
i | c1ccc(COc2ccc(CN3CC(c4nc(Cc5ccccc5)no4)C3)cc2)cc1
i | COC(=O)c1ccc(CN2CC(c3nc(C)no3)C2)o1
i | CC(=O)c1ccc(NC(=O)COc2cc(C)nc(N3CCCCC3)n2)cc1

GIRK2 activ | canonical_smiles
i | COc1ccccc1N1CCN(CCNC(=O)c2ccc(S(=O)(=O)N(C)C)cc2)CC1
i | CS(=O)(=O)N1CCc2nc(NC(=O)C3COc4ccccc4O3)sc2C1 (centres undefined)
i | COc1ccccc1NC(=O)Cn1cc(S(=O)(=O)N2CCCCC2)ccc1=O
i | CC(C)NC(=O)CCn1c(=O)c2ccccc2n2c(=O)n(CC(N)=O)nc12
i | CC1CN(C(=O)C(=O)Nc2c3c(nn2C(C)(C)C)CSC3)CC(C)O1 (centres undefined)
i | COc1ccccc1-c1ccc(N2CCN(C(=O)Nc3ccc(F)cc3F)CC2)nn1
i | CCOc1ccc(CNC(=O)C2CCCN(c3ccc(-c4ccccc4)nn3)C2)cc1 (centres undefined)
i | COc1ncc(NC(=O)Cc2c[nH]c3ccccc23)cn1
i | C=CCNc1nn(CC(=O)Nc2cc(C)ccc2OC)c(N)c1-c1nc(-c2ccc(Cl)cc2)no1
i | CCCNC(=O)/C(C#N)=C1\N=C(NC(=O)c2ccccc2)c2ccccc21
i | COc1ccc(C(=O)NNC(=O)c2ccc(=O)n(Cc3ccc(Cl)cc3)c2)cc1OC
i | CN1CC(C(=O)N2CCC(Oc3ccc(C#N)cn3)CC2)CC1=O (centres undefined)

GIRK2 activ | canonical_smiles
i | CC(Cc1ccco1)NC(=O)c1c(F)cccc1Cl (centres undefined)
i | CC(C)COC(=O)c1ccc(NC(=O)c2cccs2)cc1
i | CCc1[nH]nc(S(=O)(=O)NC2CCN(Cc3ccccc3)CC2)c1C(=O)OC
i | CCOc1ccc(S(=O)(=O)c2cnc(SCC(=O)Nc3ccc(C)c(Cl)c3)[nH]c2=O)cc1
i | COc1ccc(CCNc2ncnc3[nH]ncc23)cc1
i | C=C1[C@@H](OC(C)=O)C[C@H](OC(C)=O)[C@]2(C)[C@@H]1C[C@@H]1C[C@H](OC(C)=O)C(C)=C([C@@H](OC(C)=O)[C@@H]2OC(C)=O)C1(C)C
i | O=S(=O)(c1cccc(-c2nn3c(-c4ccccc4)nnc3s2)c1)N1CCOCC1
i | COc1cccc(C(=O)Nc2cc(C)nn2-c2nc3ccccc3s2)c1OC
i | Cc1ccc(NC(=O)c2c(O)c3sccc3n(C)c2=O)c(Cl)c1
i | O=C(CSc1ccc(F)cc1)NCC1CCN(c2ccccn2)CC1
i | O=C(NCc1cccs1)c1ccc(OCc2nc(-c3ccco3)cs2)cc1
i | O=C(Cc1cccs1)N1CC(c2nc(-c3cnccn3)no2)C1

GIRK2 activ | canonical_smiles
i | Cc1nc(CSc2nc3[nH]ncc3c(=O)n2-c2ccccc2)cs1
i | CCOC(=O)Cc1csc(NC(=O)CN(C)c2nc3ccccc3s2)n1
i | CC(C)(CO)NC(=O)c1cc2n(n1)CCCO2
i | CC(C)C(=O)Nc1sc2c(c1-c1nc3ccccc3s1)CCN(Cc1ccccc1)C2
i | COc1cccc(/C=C2\CCn3c2nc(=O)c2ccccc23)c1O
i | Cc1noc(Cn2c(=O)c3ccccc3n(CC(=O)Nc3cc(Cl)ccc3C)c2=O)n1
i | Cc1ccc(Oc2nccn3c(=O)n(CC(=O)NCc4cccs4)nc23)cc1
i | COc1ccc(C(=O)Nc2ccc3c(c2)CCCN3C(=O)C2CC2)cc1OC
i | CCOC(=O)Cc1csc(NC(=O)CN2CCCC(COC)C2)n1 (centres undefined)
i | N#C/C(=C\N1CCN(Cc2ccc3c(c2)OCO3)CC1)S(=O)(=O)c1ccc(Cl)cc1
i | O=C(NCC1CCS(=O)(=O)C1)c1ccc2nsnc2c1 (centres undefined)
i | CCOC(=O)c1ccc(NC(=O)c2oc(C)nc2C)cc1

GIRK2 activ | canonical_smiles
i | CN(C)CC1CSCCCN1C(=O)Nc1cccc(C(F)(F)F)c1 (centres undefined)
i | CC(C)Sc1ccc(CC(=O)NCc2cc(C3CC3)n(C)n2)cc1
i | O=C(CCC1CCCCC1)Nc1cccc(-c2cn3ccsc3n2)c1
i | c1ccc(-c2csc3nnc(SCc4ccc5c(c4)OCCO5)n23)cc1
i | COc1nn(C)cc1C(=O)NCc1nn(C2CCCC2)c(=O)c2ccccc12
i | CCOC(=O)CCC(=O)Nc1ccc2c(c1)CCC(=O)N2
i | Cc1cc(N2CCN(C(=O)c3cnccn3)CC2)nc(NC2CCCCC2)n1
i | CCSc1nnc(NC(=O)c2csc(-n3cccc3)n2)s1
i | Cc1ccc(Nc2ccc(NC(=O)/C=C/c3ccco3)cc2)nn1
i | Cc1cc(C)cc(OCC(=O)Nc2ccc(C(=O)O)cc2)c1
i | O=C(/C=C/c1cccs1)N1CC(c2nc(-c3ccncc3)no2)C1
i | COc1nn(C)cc1C(=O)Nc1sc2c(c1-c1nc3ccccc3s1)CCN(C(C)=O)C2

GIRK2 activ | canonical_smiles
i | O=C(c1ccccc1)N(CCn1cccn1)c1nc2ccccc2s1
i | Cc1cc(C(=O)Nc2sc3c(c2-c2nc4ccccc4s2)CCN(Cc2ccccc2)C3)on1
i | O=C(CN1CCN(CC(O)c2cccs2)CC1)Nc1nccs1 (centres undefined)
i | COc1nn(C)cc1C(=O)Nc1nc(-c2cc3ccccc3o2)cs1
i | Cc1ccc(C)c(Cn2nc3c(S(=O)(=O)N4CCCCCC4)cccn3c2=O)c1
i | O=C(NCC(F)(F)F)c1cccc(-n2ccc3ccccc32)c1
i | COc1ccc2ncc(C(=O)NN)c(N)c2c1
i | CCOC(=O)Cn1c(=O)c2c(nc3n(-c4ccccc4)c(C)c(C)n23)n(C)c1=O
i | COc1cc2ncnc(Nc3ccc4c(cnn4Cc4ccccc4)c3)c2cc1OC
i | Cc1cccc(Cn2nc3n(Cc4ccccc4)c(=O)c4ccc(C(=O)NCC(C)C)cc4n3c2=O)c1
i | CCCc1nnsc1C(=O)N1CCC(COCc2ccccc2)CC1
i | O=C(COc1ccc(Cl)cc1)N1CCC(CSCc2ccco2)CC1

GIRK2 activ | canonical_smiles
i | COc1cccc(Sc2ccc(N3CCC(C(=O)NCCCc4ccco4)CC3)nn2)c1
i | COc1ccc(-c2ncncc2Oc2ccccc2Br)c(O)c1
i | O=C(Nc1ccccc1)N1CCC(Oc2nc3c(F)cc(F)cc3s2)CC1
i | COc1nn(C)cc1C(=O)N1CCC(C(=O)Nc2cc(C)on2)CC1
i | O=C(c1cccc(-n2cnnn2)c1)N1CCN(c2nc3c(C(F)(F)F)cccc3s2)CC1
i | COc1ccccc1CNC(=O)C1COCC(=O)N1Cc1cccs1 (centres undefined)
i | O=C(C1c2ccccc2Oc2ccccc21)N1CCN(c2ncnc3c2nnn3-c2ccccc2)CC1
i | Cc1ccc(-c2cc(C(=O)N3CCC(NC(=O)c4ccccc4C)CC3)[nH]n2)c(C)c1
i | CNC(=O)CSc1ncc(-c2cccc([N+](=O)[O-])c2)n1-c1cccc(Cl)c1
i | CSCC(C)(O)CNC(=O)COc1cccc(C)c1 (centres undefined)
i | O=C1CC(c2nc3ccccc3n2Cc2ccccc2)CN1c1ccccc1 (centres undefined)
i | O=C(c1ccccc1)c1ccccc1C(=O)N1CCC(Oc2ccccn2)CC1

GIRK2 activ | canonical_smiles
i | CC(=O)NS(=O)(=O)c1ccc(NC(=O)c2coc(NC(=O)c3cnccn3)n2)cc1
i | Cc1nc2ccc(NC(=O)c3ccccc3Cl)cc2c(=O)n1-c1ccc(F)cc1
i | Cc1cc(=O)n2[nH]c(C)c(-c3ccc(Cl)cc3)c2n1
i | Cc1ccc(-c2ccc(N3CCN(S(C)(=O)=O)CC3)nn2)cc1C
i | O=C(NCc1ccc(F)cc1)N1C2CCC1COC2
i | CCOc1ccc2c(c1)SC(CC(=O)Nc1ccccc1[N+](=O)[O-])C(=O)N2 (centres undefined)
i | Nc1ccccc1-c1nnc(SCC(=O)c2ccc(F)cc2)o1
i | Cc1cc(C)n(-c2cc(SCC(=O)Nc3ccc(C(C)C)cc3)ncn2)n1
i | COc1ncc(NC(=O)C2CCCC2)cn1
i | CCOC(=O)N1CCN(C(=O)c2ccc(Cn3c(=O)[nH]c4ccccc4c3=O)cc2)CC1
i | O=C(Nc1cc(N2CCOCC2)ncn1)c1ccccn1
i | Cc1ccc(C2=NC3(CCN(CC(=O)Nc4ccc(C)c(F)c4)CC3)NC2=O)cc1

GIRK2 activ | canonical_smiles
i | O=C(NCCn1ncccc1=O)Nc1ccc2c(c1)OCO2
i | COC(=O)c1ccc2c(=O)n(CCC(=O)NCC(C)c3ccccc3)c(=S)[nH]c2c1 (centres undefined)
i | CCc1cccc2ccncc12
i | CCCCC(=O)N1CCN(c2nc3c(S(C)(=O)=O)cccc3s2)CC1
i | CSc1ncc(Cl)c(C(=O)Nc2cccc(Cl)c2C)n1
i | O=C(Cn1c(=O)oc2ccccc21)OC1CN(c2nc3ccc(F)cc3s2)C1
i | O=C(c1ccc(Br)o1)N1CCCC(c2nnc(C(F)(F)F)o2)C1 (centres undefined)
i | CCCC(=O)Nc1sc2c(c1-c1nc3ccccc3s1)CCN(C(=O)OCC)C2
i | O=C(NCCN1CCN(c2ccc(Cl)cc2)CC1)c1cnccn1
i | COCC(C)NC(=O)c1ccc(-n2nc(C(F)(F)F)cc2-c2cccs2)cc1 (centres undefined)
i | NC(=O)c1ccccc1NC(=O)c1cc(=O)c(OCc2ccc(F)cc2)co1
i | COc1ccc(Cn2c(N3CCN(c4ccccc4)CC3)nc3ccccc3c2=O)cc1F

# Shown field by field: entries from further up
SMILES: O=C(NCCn1ncccc1=O)Nc1ccc2c(c1)OCO2
  GIRK2 activ = i
SMILES: COC(=O)c1ccc2c(=O)n(CCC(=O)NCC(C)c3ccccc3)c(=S)[nH]c2c1 (centres undefined)
  GIRK2 activ = i
SMILES: CCc1cccc2ccncc12
  GIRK2 activ = i

# Continued:
GIRK2 activ | canonical_smiles
i | COCCCn1c(C(=O)NCCC(C)C)cc2c(=O)n3ccccc3nc21
i | Cc1ccc(NC(=O)c2cc3c(=O)n(C)c(=O)n(C)c3s2)cc1F
i | COc1ccccc1N1CCN(CCNC(=O)c2ccco2)CC1
i | O=C(C1CCN(c2cc(Oc3ccccc3)ncn2)CC1)N1CCN(c2ccc(F)cc2)CC1
i | O=S1(=O)CCCCN1c1ccc(S(=O)(=O)N2CCOC(c3ccccc3)C2)cc1 (centres undefined)
i | O=C(CCCSc1ccc(NC(=O)C2CC2)nn1)Nc1ccc(Cl)c(Cl)c1
i | COc1cccc(S(=O)(=O)N2CCCSCC2CN2CCCCC2)c1 (centres undefined)
i | CCOC(=O)c1cccc(NC(=O)CSC2=NNC3C4CC(c5ccccc5)NN4C=CN23)c1 (centres undefined)
i | O=C(Cc1ccccc1)NCCCS(=O)(=O)N1CCN(c2ccccc2)CC1
i | O=C(NCC1CCN(C(=O)Oc2ccccc2)CC1)c1cc(-c2ccco2)on1
i | O=C(CSc1nnc(CCc2nc3ccccc3s2)o1)Nc1ccc(-n2cnnn2)cc1

# Of the compounds above, these contain a thiophene ring, fused or not.
GIRK2 activ | canonical_smiles
i | COc1ccccc1-c1coc2c3c(ccc2c1=O)OCN(CCc1cccs1)C3
i | CCOC(=O)CCC(=O)N1CCN(CC(O)c2cccs2)CC1 (centres undefined)
i | CC(C)COC(=O)c1ccc(NC(=O)c2cccs2)cc1
i | Cc1ccc(NC(=O)c2c(O)c3sccc3n(C)c2=O)c(Cl)c1
i | O=C(NCc1cccs1)c1ccc(OCc2nc(-c3ccco3)cs2)cc1
i | O=C(Cc1cccs1)N1CC(c2nc(-c3cnccn3)no2)C1
i | CC(C)C(=O)Nc1sc2c(c1-c1nc3ccccc3s1)CCN(Cc1ccccc1)C2
i | Cc1ccc(Oc2nccn3c(=O)n(CC(=O)NCc4cccs4)nc23)cc1
i | O=C(/C=C/c1cccs1)N1CC(c2nc(-c3ccncc3)no2)C1
i | COc1nn(C)cc1C(=O)Nc1sc2c(c1-c1nc3ccccc3s1)CCN(C(C)=O)C2
i | Cc1cc(C(=O)Nc2sc3c(c2-c2nc4ccccc4s2)CCN(Cc2ccccc2)C3)on1
i | O=C(CN1CCN(CC(O)c2cccs2)CC1)Nc1nccs1 (centres undefined)
i | COc1ccccc1CNC(=O)C1COCC(=O)N1Cc1cccs1 (centres undefined)
i | CCCC(=O)Nc1sc2c(c1-c1nc3ccccc3s1)CCN(C(=O)OCC)C2
i | COCC(C)NC(=O)c1ccc(-n2nc(C(F)(F)F)cc2-c2cccs2)cc1 (centres undefined)
i | Cc1ccc(NC(=O)c2cc3c(=O)n(C)c(=O)n(C)c3s2)cc1F

# These rows are one share of the data. The share of hits here may be higher or lower than overall.
